# AID923: qHTS Assay for Allosteric/Competitive Inhibitors of Caspase-1: Spectroscopic Profiling in AFC Spectral Region; compound fluorescence, AFC spectral region (405/520 nm); almost no hit is shown here; Potency, µM (top dose mostly 57.5 µM), inactives show at the highest dose fluorescence increase, usual class: activators; 75,000 compounds, 1.1% hits; AID 923, 2007; active = well fitted activation curve with a large enough effect; inconclusive = small, poorly fitted or top-dose-only effect;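 note: potency is the fitted concentration of half-maximal effect; 0% is about no effect; scaled to a free AFC standard on each plate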
#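 Baseline compound fluorescence (AFC region, 405 nm ex/520 nm em) taken from the intercept of kinetic reads with 50 nM caspase-1 and 5 uM Ac-WEHD-AFC; normalized to an on-plate AFC standard curve; compounds titrated up to 57 uM.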
# TSHR agonist: TSH receptor (human) agonism | AID 926 | 73,000 compounds, 0.48% hits | Potency, µM (top dose mostly 57.1 µM), inactives show top-dose activation, most hits filed as activators | HEK293-CNG-TSHR cells (CNG channel as cAMP sensor), membrane potential dye, cAMP; active = well fitted activation curve of enough size with the parental cells flat; inconclusive = any curve in the parental cells; inactive = parental cells flat and receptor cells flat or falling; note: potency is the fitted concentration of half-maximal effect; % of control where 0% means no effect; weak receptor curves with flat parental cells got no call and are not listed
# Target sequence (P16473 whole entry, looked up): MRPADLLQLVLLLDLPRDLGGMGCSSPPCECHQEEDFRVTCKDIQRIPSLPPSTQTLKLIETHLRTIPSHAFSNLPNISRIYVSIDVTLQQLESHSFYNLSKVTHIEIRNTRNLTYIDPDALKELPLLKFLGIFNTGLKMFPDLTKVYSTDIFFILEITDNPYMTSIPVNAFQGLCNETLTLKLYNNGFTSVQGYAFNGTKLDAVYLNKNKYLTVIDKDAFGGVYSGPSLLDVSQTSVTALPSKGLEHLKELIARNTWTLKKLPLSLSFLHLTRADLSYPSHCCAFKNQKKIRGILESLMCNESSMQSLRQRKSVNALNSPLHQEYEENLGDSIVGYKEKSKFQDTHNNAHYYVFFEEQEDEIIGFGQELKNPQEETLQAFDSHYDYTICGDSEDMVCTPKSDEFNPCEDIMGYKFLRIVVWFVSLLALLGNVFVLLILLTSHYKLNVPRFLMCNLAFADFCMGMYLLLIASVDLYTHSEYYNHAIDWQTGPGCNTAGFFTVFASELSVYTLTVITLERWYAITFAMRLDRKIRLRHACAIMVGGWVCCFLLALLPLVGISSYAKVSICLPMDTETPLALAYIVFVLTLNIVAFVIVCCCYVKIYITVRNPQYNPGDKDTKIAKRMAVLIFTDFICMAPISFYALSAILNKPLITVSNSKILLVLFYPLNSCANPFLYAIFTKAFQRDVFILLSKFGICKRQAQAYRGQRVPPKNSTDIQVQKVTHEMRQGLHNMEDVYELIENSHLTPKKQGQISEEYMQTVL
#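 cAMP rise detected as CNG-channel membrane depolarization by fluorescent dye (emission 590 nm), 30 min after compound, following 60 min dye loading containing 100 uM RO 20-1724 at room temperature. Cells: TSHR/CNG HEK 293, with parental CNG HEK 293 as control.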
# A488 autofl: A488 region autofluorescence; compound autofluorescence, A488 spectral region, dye equivalency; stronger effect = higher value; max dye equivalency, M; 59,000 compounds, 0.1% hits; AID 591; active = above 10 nM dye equivalent; inconclusive = 1 to 10 nM; inactive = 1 nM or less; about half of its hits are not listed in these tables;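 note: highest value over a series up to 38 µM; compound alone in buffer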
#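 Intrinsic compound fluorescence is measured in 100 mM Tris buffer at pH 8.0 following 15 min incubation at room temperature. Intensities at 480 nm excitation/540 nm emission are calibrated to an on-plate A488 concentration series, giving dye-equivalent concentrations.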
# A647 autofl: compound autofluorescence in A647 spectral region. Compound fluorescence, A647 channel (570/671 nm), Tris buffer. max dye-equivalent concentration, M. 59,000 tested, under 10 active; active means above 1 µM dye equivalent; inconclusive means 0.1 to 1 µM; inactive means 0.1 µM or less;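 note: values scaled relative to a standard on each plate; highest value over a series up to 38 µM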
#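 Compound fluorescence was measured in 100 mM Tris buffer, pH 8.0, after 15 min at room temperature, using 570 nm excitation and 671 nm emission filters. Signal was normalized to a per-plate Alexa 647 standard curve and expressed as dye-equivalent concentration at each compound concentration.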
# Resorufin fluor: compound fluoresces in the resorufin spectral region. 59,000 compounds, 0.04% hits. AID 588. Compound fluorescence, resorufin region 547/598 nm, buffer; stronger effect = higher value. max dye-equivalent concentration, M; active = above 10 nM dye equivalent; inconclusive = 1 to 10 nM; inactive = 1 nM or less; a few of its hits are not listed in these tables; note: highest value over a series up to 38 µM
#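 Dye-equivalent concentration values derive from comparing each well's 547/598 nm fluorescence against resorufin standards included on every plate. Incubation was 15 min at room temperature in 100 mM Tris, pH 8.0.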
# An asterisk follows results filed as active; i = inactive; ? = inconclusive; · = no result given; & = joins results of further samples; [ ] = remark or other dose. Only part of the results is shown; the hit share may differ from the screen's.
# A first look (four entries):
SMILES,AID923,TSHR agonist,A488 autofl,A647 autofl,Resorufin fluor
COc1ccc(OC)c(S(=O)(=O)N(C)CC(=O)O)c1,0.5%,7.5%,i,2.92e-08,i
Cc1ccccc1Cn1ccc(NC(=O)CCSc2nc(-c3ccco3)cc(C(F)(F)F)n2)n1,-1.3%,16.2%,i,7.34e-08,i
COCCN1Cc2c(sc(C)c2C)N(C(=O)c2ccccc2)C1,12.4%,10.2%,i,1e-09,i
CCOc1ccccc1NC(=O)c1cccc2c1C(=O)N(CCOC)C2,-1.7%,13.7%,·,·,·

# Results (from the top)
SMILES,AID923,TSHR agonist,A488 autofl,A647 autofl,Resorufin fluor
COc1ccc(OC)c(S(=O)(=O)N(C)CC(=O)O)c1,0.5%,7.5%,i,2.92e-08,i
Cc1ccccc1Cn1ccc(NC(=O)CCSc2nc(-c3ccco3)cc(C(F)(F)F)n2)n1,-1.3%,16.2%,i,7.34e-08,i
COCCN1Cc2c(sc(C)c2C)N(C(=O)c2ccccc2)C1,12.4%,10.2%,i,1e-09,i
CCOc1ccccc1NC(=O)c1cccc2c1C(=O)N(CCOC)C2,-1.7%,13.7%,·,·,·
COC(=O)C(NC(=O)c1ccccc1)(Nc1nc(C)cs1)C(F)(F)F (centres undefined),·,·,i,2.14e-08,i
CN(C)CCCN1c2ccccc2Sc2ccc(C(F)(F)F)cc21,0.5%,-8.2%[25.6 µM],i,3.17e-08&1e-09&1.8e-09,i
CCn1c(SCC(=O)N2CCOCC2)nc(O)cc1=O,2.5%,?,·,·,·
C=CCn1c(SCC(=O)NC2CCCCC2)nnc1-c1sc(N)nc1C,0.7%,?,i,2.58e-08,i
O=C(Cn1c(=O)n(Cc2ccco2)c(=O)c2cc(Cl)ccc21)NCC1CCCO1 (centres undefined),-0.4%,1.3%,i,1.36e-08,i
O=C(Nc1ccc(-c2nc3ccccc3o2)c(O)c1)c1cc(-n2cnnc2)ccc1Cl,-2.0%,·,i,8.47e-08,i
CC(C)(C#N)C(C)(C)c1nn[nH]n1,·,·,i,1e-09,i
N#CC1=C(N)Oc2cc(N)ccc2C1C1CCCCC1 (centres undefined),0.2%,-6.2%,i,1.57e-08,i
COc1cc(-c2nc(-c3ccc(C)nc3OC)no2)cc(OC)c1OC,0.9%,-0.2%,i,3.4e-09,i
CCCCC(=O)Nc1cc(C)c2c(=O)oc3ccccc3c2n1,2.2%,20.7%,i,2.7e-09,i
CC1(C)CC(=O)C(C=NC(CCC(N)=O)C(=O)O)=C(O)C1 (centres undefined),2.4%,9.7%,i,1e-09,i
Cc1ccc(NCc2nnc(SCC(=O)NCc3ccco3)n2CC2CCCO2)c(C)c1 (centres undefined),0.7%,5.9%,i,1e-09,i
O=C(c1ccc(OCC2CCCO2)cc1)N1CCN(c2ccccc2)CC1 (centres undefined),0.4%,1.3%,i,4.05e-08,i
CCOC(=O)C1C(=O)NC(SCC(N)=O)=C(C#N)C1c1ccccc1OCC (centres undefined),0.4%,2.0%,·,·,·
Cc1ccc(C)c(NC(=O)CSc2n[nH]c(-c3ccncc3)n2)c1,-1.7%,·,i,8.7e-09,i
C[C@H](Br)C(=O)Nc1ccc(C(=O)O)c(O)c1,0.6%[11.5 µM],10.6%[11.4 µM],i,7.04e-08,i
COc1ccc(-c2nc3nc(C)c(Cc4ccccc4)c(=O)n3[nH]2)cc1,3.3%,0.4%,i,4.9e-09,i
COC(=O)NC(/C(C(=O)OC)=C(\C)NCc1ccccc1)c1ccc2ccccc2c1 (centres undefined),1.4%[11.5 µM],?,·,·,·
Cc1ccc(S(=O)(=O)NCCC(=O)N2CCN(Cc3ccccc3)CC2)cc1,-1.7%,0.1%,i,1.2e-09,i
O=C(C1CCCN1S(=O)(=O)c1cccc2cccnc12)N1CCN(c2ccccc2)CC1 (centres undefined),0.8%,6.9%,·,·,·
O=C(CSc1nc2c(c(=O)n1-c1ccc(Br)cc1)SCC2)NCC1CCCO1 (centres undefined),-0.3%,11.9%[11.4 µM],i,1e-09,i
# (listing goes on)
SMILES,AID923,TSHR agonist,A488 autofl,A647 autofl,Resorufin fluor
Cc1ccc(NC(=O)C2CCN(S(=O)(=O)c3cccc4cccnc34)CC2)nc1,-0.2%,-7.0%,·,·,·
CC(=O)Nc1ccc2nc(-c3cccs3)[nH]c2c1,-0.9%,9.5%[11.4 µM],·,·,·
CC(C)C(OC(=O)c1cc2occc2n1C)C(=O)NCc1ccc2c(c1)OCO2 (centres undefined),-0.1%,18.8%,i,1.55e-08,i
O=C(c1cnc(N2CCN(c3ncccn3)CC2)c2ccccc12)N1CCN(c2ncccn2)CC1,-1.3%,11.1%,i,2.1e-09,i
Cc1cc(NS(=O)(=O)c2ccc(-c3ccccc3)cc2)no1,0.7%,?,i,3.88e-08,i
COC(=O)c1sccc1NC(=O)c1cccnc1,-0.3%,8.4%,i,5.8e-09,i
N#Cc1c(N)oc(-c2cccs2)c1-c1cccs1,8.8%,12.2%,i,9.3e-09,i
CCOC(=O)c1cc2sccc2n1CC(=O)Nc1ccc(OC)cc1OC,0.0%,?,i,1e-09,i
CCCn1c(C)nc2c(NCCCCN(CC)CC)nc(C)nc21,0.2%,2.0%,·,·,·
COc1cccc(C2CC(c3ccc(Cl)cc3)n3nc(N)nc3N2)c1 (centres undefined),-1.6%,2.6%,·,·,·
CCc1nnc(NC(=O)CSc2nnc(CSc3nc(C)cc(C)n3)n2C)s1,-1.1%,-1.4%,i,3.23e-08,i
COc1cc(-c2nc(-c3ccc(Br)o3)no2)cc(OC)c1OC,2.1%,12.6%,·,·,·
O=C(COc1ccccc1Cl)NCc1ccco1,2.3%,0.6%,i,1e-09,i
Cc1ccc(-c2nc3ncccn3c2Nc2ccc3c(c2)OCO3)o1,2.3%,-37.3%[inhibitor],i,1e-09,i
C[C@H]1C=C2C=C[C@H](C)[C@H](CC[C@@H]3C[C@@H](O)CC(=O)O3)[C@H]2[C@@H](OC(=O)[C@@H](C)CCO)C1,-2.6%,?,·,·,·
CCC(=O)NCc1nc2ccccc2n1Cc1ccccc1F,-0.1%,-4.2%[11.4 µM],i,5.2e-09,i
COc1ccc(NC(=O)c2cc3n(n2)C(C(F)(F)F)CC(c2ccc4c(c2)OCO4)N3)cc1OC (centres undefined),-0.6%,-2.0%,i,2.05e-08,i
Cn1c(CNc2cccc(Cl)c2)nnc1SCC(=O)OC1CCCCC1,-2.0%,4.7%,i,1.59e-08,i
COc1ccc(CC(CC(=O)O)C(=O)Nc2ccc(OC)cc2)cc1 (centres undefined),-0.8%,-1.7%,i,3.6e-08,i
O=C(O)CCC(=O)OC1CC2CCC1C2 (centres undefined),-0.1%,0.9%,i,1e-09,i
Cc1c(NC(=O)COC(=O)Cc2ccc(Cl)cc2)c(=O)n(-c2ccccc2)n1C,-0.2%,-1.9%,i,1e-09,i
Cc1cccc(N(C(=O)Cn2nnc3ccccc32)C(C(=O)NCc2ccco2)c2ccncc2)c1C (centres undefined),-1.6%,10.8%,i,2.41e-08,i
CC(=O)N[C@H]1[C@@H](O[C@@H](C)C(=O)O)[C@H](O)[C@H](CO)O[C@@H]1O,1.5%[25.7 µM],0.4%[25.6 µM],i,5.3e-09,i
CO[C@@H]1/C=C\O[C@]2(C)Oc3c(C)c(O)c4c(O)c(c(/C=N\N5CCN(C)CC5)c(O)c4c3C2=O)NC(=O)/C(C)=C\C=C/[C@H](C)[C@H](O)[C@H](C)[C@H](O)[C@H](C)[C@H](OC(C)=O)[C@@H]1C,·,-9.8%,i,1e-09,i
COc1cc(C(=O)OC(C)CN2CCOCC2)cc(OC)c1OC (centres undefined),0.9%,?,i,1e-09,i
# New compounds follow:
SMILES,AID923,TSHR agonist,A488 autofl,A647 autofl,Resorufin fluor
OC(COc1ccc(Cl)cc1)CN1CCCCC1 (centres undefined),0.6%,14.8%,i,1.99e-08,i
Cc1ccc(-c2ccc(CCC(=O)O)n2C(C)C)cc1,3.3%,7.7%,·,·,·
Cc1ccc(NC(=O)C2CCCNC2=O)nc1 (centres undefined),1.7%,0.0%,i,3.21e-08,i
COc1ccccc1CNc1nc2nc(C)c(C)c(=O)n2[nH]1,1.5%,-1.3%,i,1e-09,i
O=C(CNS(=O)(=O)c1cccs1)N1CCCC1,-1.3%,1.6%,i,1e-09,i
CCOc1ccc(C2CC(c3ccccc3)Nc3nc(N)nn32)cc1 (centres undefined),·,·,i,2.7e-09,i
CCOC(=O)N1CCN(C(=O)CN2C(=O)COc3ccc(C(C)(C)C)cc32)CC1,-0.3%,1.3%,i,1.21e-08,i
CCOC(=O)c1sc2ncn(C(CC)C(=O)OC)c(=O)c2c1C (centres undefined),1.3%,10.1%,·,·,·
COC(=O)[C@@]1(Cc2ccccc2)C=C[C@@H](C)N1C(C)=O,0.3%,4.1%,·,·,·
O=C(NCc1cccnc1)NC(C(F)(F)F)C(F)(F)F,·,·,i,8.7e-09,i
CCOC(=O)c1nc2ccccc2s1,-1.9%,-0.3%,·,·,·
CC(=O)N1CCN(c2ccccc2NC(=O)COc2cc(C)ccc2C(C)C)CC1,-1.5%,?,i,2.9e-08,i
CCCn1nnc(NC(=O)c2ccc(Br)cc2)n1,-1.6%,5.9%,i,1e-09,i
COc1ccc(-c2c(NC(C)=O)n(C)c3ccccc3c2=O)cc1,1.9%,4.9%,i,1e-09,i
COc1ccc(NC(=O)N2CC[C@@]3(CCCN(C(=O)c4cc(C(F)(F)F)cc(C(F)(F)F)c4)C3)C2)cc1,0.6%,6.2%,i,1.88e-08,i
COc1ccc(S(=O)(=O)n2cnc3cc(C)c(C)cc32)cc1,-2.3%,?,·,·,·
CCOc1ccccc1C(=O)Nc1ccc(S(=O)(=O)N2CCOCC2)cc1,-1.0%,22.9%,i,1e-09,i
O=C(COC(=O)CCN1C(=O)c2ccccc2C1=O)Nc1ccc(S(=O)(=O)N2CCCC2)cc1,-1.6%,0.9%,i,1.2e-09,i
Nc1ccn(-c2ccc(Cl)cc2)c(=O)c1,-0.7%,4.0%,i,1e-09,i
O=C1NCC(O)=C1C=NCCCO,0.0%,-0.6%[11.4 µM],i,2.58e-08,i
CCCCCn1c(=O)[nH]c2cc(C(=O)NCCCN(CC)CC)ccc2c1=O,-2.5%,2.8%[11.4 µM],i,1e-09,i
Cc1cc(C(=O)Nc2sc3c(c2C#N)CCC(C)C3)no1 (centres undefined),0.6%,10.5%,i,1.33e-08,i
CCOC(=O)N1CCN(C(=O)CSc2nnc(-c3ccc(C)c(C)c3)o2)CC1,-4.0%,6.5%,·,·,·
c1ccc(CCN2CN=C(Nc3nc4ccccc4o3)NC2)cc1,-1.1%,29.3%,i,4.3e-09,i
O=C1[C@H]2[C@H]3[C@H](O)[C@H](O)C/C(=N/OCc4ccccc4)[C@H]3CC[C@@H]2C(=O)N1Cc1ccc2c(c1)OCO2,-0.2%[11.5 µM],1.6%[11.4 µM],·,·,·
# More compounds follow:
SMILES,AID923,TSHR agonist,A488 autofl,A647 autofl,Resorufin fluor
CC(Oc1cccc(Cl)c1)C(=O)Nc1cc(=O)n(C)c(=O)n1C (centres undefined),-1.0%,-12.5%,i,5.3e-09,i
CCn1c(=O)cc(O)c2ccccc21,-0.8%,-8.0%,·,·,·
Cc1cnc(CNc2ncnc3ccc(-c4ccccc4Cl)cc23)cn1,2.8%,?,i,3.7e-09,i
COc1ccccc1CN1CC2(CCN(S(C)(=O)=O)CC2)C1,-0.9%,3.5%,i,2.9e-09,i
Cc1c(OCC(=O)OC(C)(C)C)ccc2c3c(c(=O)oc12)CCC3,0.7%,?,i,3.52e-08,i
COc1ccccc1N1CCN(C(=O)C2CCCO2)CC1 (centres undefined),4.7%,-13.3%,·,·,·
O=C(CCCNS(=O)(=O)c1ccccc1)NCc1ccco1,1.5%,3.7%,·,·,·
CC(C)CO/N=C1/C[C@@H](O)[C@@H](O)[C@@H]2[C@@H]3C(=O)N(c4cccc(Oc5ccccc5)c4)C(=O)[C@H]3CC[C@@H]12,-2.8%[11.5 µM],2.0%[11.4 µM],·,·,·
